PABP polyA inh – PABP-poly(A) binding inhibition | P11940 | PABP-poly(A) RNA binding, fluorescence polarization | inhibition, % at 35 µM | 290,000 compounds, 1% hits | AID 2014;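 active = 50% or more with normal probe brightness, or confirmed in later tests; inconclusive = above 50% with abnormal brightness, or retests that disagree; inactive = below 50% or failed in later tests; about a fifth of its hits are not listed in these tables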;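 note: calls also rest on retests at 20 µM and on dose response follow-up; controls were probe without protein and protein plus probe with vehicle; some compounds called inactive have numbers as strong as hits; many hits fall short of the cut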
eIF4H FP inh – inhibitors of RNA binding by human eIF4H | 290,000 compounds, 0.94% hits | Q15056 | AID 2012 | inhibition, % at 35 µM | eIF4H fluorescence polarization binding assay;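 active = 50% or more with normal probe brightness, or confirmed in later tests; inconclusive = above 50% with abnormal brightness, or retests that disagree; inactive = below 50% or failed in later tests; about a fifth of its hits are not listed in these tables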;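 note: calls also rest on retests at 20 µM and on dose response follow-up; 0% = protein and probe with vehicle and 100% = probe without protein; strong numbers were not always called active; many hits fall short of the cut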
Env fusion inh – blocks HIV Env-driven cell-cell fusion. AID 651610. 360,000 compounds, 1.1% hits. HeLa-JRFL Env/CEM21 cell fusion, luciferase. inhibition, % at 12.3 µM;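 active = mean replicate inhibition score of at least 50 and every replicate individually at or above 50; inconclusive = only one of the two criteria met; inactive = mean below 50 and not all replicates reaching 50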;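 note: 0% = plate neutral controls and 100% = maraviroc near 300 nM; one replicate is shown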
MT1-MMP act inh – blocks activation of human MT1-MMP | P50281 | HT1080 RFP-PRO-GFP cells, GFP/RFP ratio fluorescence, overnight; percent of plate control window, DMSO zero | GFP/RFP ratio change, % at 20 µM | 360,000 compounds, 0.061% hits | AID 651647;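 active = GFP/RFP ratio change of at least 30% with cell ATP level not reduced by more than half and red fluorescence within 50% of control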; note: strong numbers were not always called active
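Material: RFP-PRO-GFP reporter HT1080 cells. Dosing: single-point 20 µM compound, 1% DMSO. Controls: DMSO and RFP-L50D-GFP cell wells. Timing: cells overnight before dosing, compound overnight, 37 °C, 5% CO2. Measure: GFP/RFP fluorescence ratio.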
Rce1 inh – inhibitors of yeast Ras-converting enzyme; yeast membranes, quenched prenylated peptide cleavage fluorescence; calls only; 290,000 compounds, 0.27% hits; AID 2563;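 active = fall in fluorescence gain of 50% or more versus controls, with final raw signal at or below 3038400; inconclusive = same 50% fall but final raw signal above 3038400; inactive = fall in fluorescence gain under 50%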;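 note: plate controls were neutral control wells for no effect and wells lacking membranes for full effect; tested at 10 µM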
Target sequence (Q03530 whole entry, looked up): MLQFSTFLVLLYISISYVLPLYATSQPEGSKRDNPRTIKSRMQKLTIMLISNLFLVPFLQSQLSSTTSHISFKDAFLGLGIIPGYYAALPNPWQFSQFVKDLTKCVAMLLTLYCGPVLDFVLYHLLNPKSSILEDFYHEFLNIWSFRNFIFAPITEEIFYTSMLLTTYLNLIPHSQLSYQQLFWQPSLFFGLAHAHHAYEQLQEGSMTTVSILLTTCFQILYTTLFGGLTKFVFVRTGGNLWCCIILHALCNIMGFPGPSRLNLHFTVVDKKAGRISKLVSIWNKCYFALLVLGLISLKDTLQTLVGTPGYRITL
Yeast UUG start – modulators of start codon recognition fidelity in yeast; S. cerevisiae UUG-firefly luciferase reporter, luminescence/redox ratio; activity score, % at 18.7 µM; 350,000 compounds, 0.13% hits;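 active = replicate mean at a twofold rise or more, about +100% in these data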;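 note: firefly luciferase made from a UUG start codon reports start codon fidelity; reporter light over untreated wells divided by growth signal over untreated wells; some hits fall short of that in this replicate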
CSC inhib – cancer stem cell inhibition; cancer stem cell-like cells viability, luminescence; inhibition, % at 7.5 µM; 300,000 compounds, 1.1% hits;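 active = mean at 75% or more and at least half the replicates too; inconclusive = mean and replicates disagree; tested in HMLE shEcad cells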;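 note: 0% = median of negative and 100% = median of positive control wells; the first replicate is given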
eIF4H FP inh retest – recorded beside eIF4H FP inh, whose call it bears; inhibition, %; compound at 20 µM; confirmation average;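 mean of two retest wells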
PABP polyA inh retest – also measured in PABP polyA inh; calls as there; inhibition, %; compound at 20 µM; confirmation repeats;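 mean of two retest wells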
MT1-MMP act inh RFP – further read-out of MT1-MMP act inh, marked with its call; RFP signal change, %; measured here: RFP expression control read;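 0 = vehicle wells; hits needed this value within 50% of zero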
* hit, by the source's call; i = inactive; ? = inconclusive; · = no result given. Not all compounds are listed; count on the stated rates, not on these rows.

SMILES	PABP polyA inh	eIF4H FP inh	Env fusion inh	MT1-MMP act inh	MT1-MMP act inh RFP	Rce1 inh	Yeast UUG start	CSC inhib	others
Cc1cccc2nc(CSc3nnc4ccccn34)cn12	-4	-4	-85	1	6	i	-25	-2
COCC(=O)NNC(=O)c1ccc(OC)cc1	5	-10	-1	-1	3	i	·	-7
CN1CCN(c2ccc([N+](=O)[O-])cc2NC(=O)c2ccccc2Cl)CC1	-8	-6	·	2	2	i	·	0
Cc1ccc(O)c(NC(=O)C2=CC(c3cccs3)=NS(=O)(=O)N2C)c1	1	-9	1	0	-2	i	0	·
O=C(NCCc1cccs1)C1CC(c2c(Cl)cccc2Cl)=NO1 (centres undefined)	-4	0	30	-1	3	i	-11	5
COc1ccccc1C(=O)NC(=O)COC(=O)Cn1[nH]c(=O)c2ccccc2c1=O	·	·	-8	-1	3	i	-5	·
COc1ccc(C(=O)NNS(=O)(=O)c2ccccc2)cc1OC	6	-9	-177	3	3	i	0	8
CN(C)CCn1c(=O)n(-c2ccc(F)cc2)c(=O)c2c3c(sc21)CCCCC3	5	-8	?	-4	3	i	·	-13
COc1ccc(C2=NN(S(C)(=O)=O)C(c3cccs3)C2)cc1 (centres undefined)	8	-2	-4	-4	1	i	·	0
Cc1ccc(Sc2cc(C(=O)c3ccccc3C(=O)O)ccc2[N+](=O)[O-])cc1	-6	-13	-5	1	3	i	-11	17

2 consecutive compounds from above, for reference:
SMILES	PABP polyA inh	eIF4H FP inh	Env fusion inh	MT1-MMP act inh	MT1-MMP act inh RFP	Rce1 inh	Yeast UUG start	CSC inhib	others
Cc1ccc(O)c(NC(=O)C2=CC(c3cccs3)=NS(=O)(=O)N2C)c1	1	-9	1	0	-2	i	0	·
O=C(NCCc1cccs1)C1CC(c2c(Cl)cccc2Cl)=NO1 (centres undefined)	-4	0	30	-1	3	i	-11	5

Other compounds follow.
SMILES	PABP polyA inh	eIF4H FP inh	Env fusion inh	MT1-MMP act inh	MT1-MMP act inh RFP	Rce1 inh	Yeast UUG start	CSC inhib	others
O=C(Nc1ccccc1Cl)C1CC(=O)n2c(nc3ccccc32)N1 (centres undefined)	-14	-4	3	·	·	i	·	29
O=C(NCCc1nnc2ccc(SCC(=O)N3CCCC3)nn12)c1ccccc1	-4	-8	-15	-5	3	i	-8	-4
O=c1cc(COc2ncnc3c(Cl)cc(Cl)cc23)nc2sccn12	-2	-2	-17	-7	-5	i	·	-9
O=C1Nc2cc(C(=O)NCCN3CCCCCC3)ccc2S/C1=C\c1ccccc1	-24	-17	-1	-2	-2	i	-10	-5
COc1cc(OC)cc(-c2cc3ccc(F)cc3cn2)c1	·	·	-21	4	-1	·	-6	47
COc1ccc(S(=O)(=O)N2CCOCC2)c2ccccc12	2	-6	10	0	-2	i	-12	-18
Cc1ccc(-c2nc3cc(NC(=O)C(C)C)ccc3o2)cc1	-2	-2	·	11	-1	i	-4	1
Cc1ccc(S(=O)(=O)N[C@H](C(=O)OCC(=O)NC(=O)c2cccn2C)C(C)C)cc1	·	·	9	-1	1	·	4	·
Cc1ccc2nc(N/C(=N/S(=O)(=O)c3ccc(F)cc3F)c3ccccc3)sc2c1	-7	-2	3	1	1	i	-13	29
COc1ccc(OC)c(-n2nnnc2SCC(=O)Nc2nc(C)c(C)s2)c1	2	-14	-45	-1	-2	i	-21	-4

Entries shown so far with two or more sulfur atoms (4):
SMILES	PABP polyA inh	eIF4H FP inh	Env fusion inh	MT1-MMP act inh	MT1-MMP act inh RFP	Rce1 inh	Yeast UUG start	CSC inhib	others
Cc1ccc(O)c(NC(=O)C2=CC(c3cccs3)=NS(=O)(=O)N2C)c1	1	-9	1	0	-2	i	0	·
COc1ccc(C2=NN(S(C)(=O)=O)C(c3cccs3)C2)cc1 (centres undefined)	8	-2	-4	-4	1	i	·	0
Cc1ccc2nc(N/C(=N/S(=O)(=O)c3ccc(F)cc3F)c3ccccc3)sc2c1	-7	-2	3	1	1	i	-13	29
COc1ccc(OC)c(-n2nnnc2SCC(=O)Nc2nc(C)c(C)s2)c1	2	-14	-45	-1	-2	i	-21	-4

The list continues:
SMILES	PABP polyA inh	eIF4H FP inh	Env fusion inh	MT1-MMP act inh	MT1-MMP act inh RFP	Rce1 inh	Yeast UUG start	CSC inhib	others
O=C(Nc1cnn(Cc2ccc(Cl)cc2)c1)c1ccc([N+](=O)[O-])cc1	-1	16	·	15	-9	i	-23	2
C=CCNC(=O)[C@H]1N2C(=O)c3ccccc3C2SC1(C)C (some centres undefined)	3	2	-8	0	2	i	-4	-11
O=C(C1CCN(c2nc(-c3ccccc3)nc3c2CCC3)CC1)N1CCCC1	10	-2	18	-4	-2	i	7	-2
CCOC(=O)c1cnc(N2CCN(c3ccccc3)CC2)[nH]c1=O	3	-1	-3	0	1	i	-12	·
CCCCCc1c(C)nc(N2CCc3ccccc3C2)[nH]c1=O	5	5	1	0	-2	i	3	·
Cc1cccc(N2CSC3=C(C#N)C(c4ccc(C)o4)CC(=O)N3C2)c1 (centres undefined)	118*	98*	·	·	·	i	·	-1	eIF4H FP inh retest=100*;PABP polyA inh retest=89*
COc1cc(NC(=O)c2sc3ncn(CC(=O)N4CCC(C)CC4)c(=O)c3c2C)cc(OC)c1OC	-8	2	-10	4	0	i	-1	-1
CN(c1ccc(OCC(=O)OCc2nnc(-c3ccccc3)o2)cc1)S(=O)(=O)c1ccc(Cl)cc1	·	·	-5	-3	-1	i	-8	4
Cc1ccc(-c2nnc3ccc(SCC(=O)N4CCc5ccccc54)nn23)cc1	-2	-6	-2	2	-1	i	-8	·
COc1cccc(C(=O)N2CCC(O)(c3cccnc3)CC2)c1	7	-7	-11	3	3	i	·	-8
C#CCNC(=O)C1=C[C@@H](c2coc3ccccc3c2=O)[C@H](CCCO)[C@@H](OCC)O1	9	10	17	-4	2	i	-2	-2
O=C(NNC1=NCCCCC1)c1cccc([N+](=O)[O-])c1	4	-9	-1	-1	4	i	·	-8

Bioassay records: PubChem, several laboratories
